Bioassay records from PubChem.
Ecoli growth – E. coli growth inhibition; Escherichia coli growth, OD600, 23 h; hits give low values; OD600 absorbance (concentration not given with the values); 0.21% of 330,000 active; AID 1053175;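 active = OD600 absorbance below the run mean of sample wells minus 3.6 SD, in any replicate, cut at about 0.56 in these data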;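 note: stock transfer was 300 nL into about 60 µL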
HNF4A DNA FP – change in binding of human HNF4 alpha to DNA; P41235; HNF4a-FITC DNA binding, fluorescence polarization, 1 h; activity change, % at 10 µM; 0.3% of 360,000 active; AID 1224865; in the data active = activity change above about 30%, passing the limit was not always enough;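 note: controls were the assay level and a saturating level of protein; the project sought stronger binding though the title names inhibitors; some compounds called inactive have numbers as strong as hits; positive values seem to mean higher polarization but the record does not say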
Target sequence (P41235 whole entry, looked up): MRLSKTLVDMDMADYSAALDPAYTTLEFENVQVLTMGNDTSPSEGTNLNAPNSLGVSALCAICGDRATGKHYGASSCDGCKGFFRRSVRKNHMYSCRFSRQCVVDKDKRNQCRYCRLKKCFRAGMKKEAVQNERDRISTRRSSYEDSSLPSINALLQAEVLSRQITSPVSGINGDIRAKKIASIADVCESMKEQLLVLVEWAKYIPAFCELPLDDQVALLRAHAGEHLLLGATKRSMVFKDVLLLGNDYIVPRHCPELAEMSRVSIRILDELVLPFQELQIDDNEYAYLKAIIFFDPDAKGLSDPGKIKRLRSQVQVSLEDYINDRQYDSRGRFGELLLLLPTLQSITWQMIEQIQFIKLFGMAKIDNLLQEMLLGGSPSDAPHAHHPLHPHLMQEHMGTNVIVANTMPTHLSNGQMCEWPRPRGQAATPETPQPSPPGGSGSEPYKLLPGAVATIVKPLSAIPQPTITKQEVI
FGF22 binding – shifts melting point of recombinant human FGF22 | Q9HCT0 | recombinant FGF22 thermal shift, SYPRO orange fluorescence; percent of sucrose octasulfate shift, DMSO zero | calls only at 9.99 µM | 1.5% of 340,000 active | AID 651658;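 active = melting point raised past a set limit in the mean and every replicate; inconclusive = no clear call; three in four hits are not shown here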
Target sequence (Q9HCT0 whole entry, looked up): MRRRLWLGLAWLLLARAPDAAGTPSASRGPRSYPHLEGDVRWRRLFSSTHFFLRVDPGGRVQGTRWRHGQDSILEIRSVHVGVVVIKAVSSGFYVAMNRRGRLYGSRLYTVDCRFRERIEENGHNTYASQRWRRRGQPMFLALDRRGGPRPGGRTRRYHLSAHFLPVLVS
RanGTP-Impb inh – inhibitors of RanGTP-importin-beta interaction, primary screen, biochemical, FRET, CFP-Ran, YFP-importin-beta, homogeneous; inhibition, % (no concentration beside the values); 1.1% of 300,000 active; cell-free CFP-Ran/YFP-importin-beta FRET ratio;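 active = most replicates above 15%; inconclusive = exactly half above 15%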;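 note: 0% = DMSO wells and 100% = Ran loaded with GDP instead of GTP; wells of about 40 µL received 100 nL stock; the first replicate is given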
MLL AF4-AF9 inh – blocks AF4 peptide binding to human AF9. AlphaScreen, biotin-AF4 peptide binding to FLAG-AF9. inhibition, % at 10 µM. 0.47% of 350,000 active;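 active = every replicate reaching a set inhibition limit, whatever the replicate mean, cut at about 25% in these data; inconclusive = mean inhibition reaches that limit but some replicates miss it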;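 note: 0% = plate neutral control median and 100% = total signal loss; the record names both 10 and 1 µM as test concentration; the first replicate is given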
Vif TR-FRET – HIV-1 Vif–A3G interaction blockers – biochemical, TR-FRET, GST-Vif 1-94, biotin-A3G peptide, dose response retest, primary screen (AID 1117319). TR-FRET GST-Vif / biotin-A3G peptide binding; higher % means a stronger effect; test concentration not given here; strong numbers were not always called active. one-dose inhibition, %; IC50 in µM for titrated hits. 0.57% of 260,000 active;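 active = above the screen mean plus three standard deviations and confirmed in dose response; inconclusive = results disagree or hit not tested in dose response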;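 note: Vif residues 1-94 fused to GST binding biotinylated APOBEC3G peptide 110-148; 0% = full assay without inhibitor and 100% = GST in place of GST-Vif; retest series ran down from 100 µM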
UCH37 inh – inhibitors of human deubiquitinating enzyme UCH37; Q9Y5K5; purified proteasome/UCH37, Ub-AMC cleavage fluorescence; inhibition, % (test concentration not listed); 0.33% of 330,000 active; AID 588478;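 active = mean of two replicates above 20%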;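 note: 0% = compound-free wells with enzyme and 100% = wells lacking proteasome; stock transfer was 100 nL into about 20 µL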
Target sequence (Q9Y5K5 whole entry, looked up): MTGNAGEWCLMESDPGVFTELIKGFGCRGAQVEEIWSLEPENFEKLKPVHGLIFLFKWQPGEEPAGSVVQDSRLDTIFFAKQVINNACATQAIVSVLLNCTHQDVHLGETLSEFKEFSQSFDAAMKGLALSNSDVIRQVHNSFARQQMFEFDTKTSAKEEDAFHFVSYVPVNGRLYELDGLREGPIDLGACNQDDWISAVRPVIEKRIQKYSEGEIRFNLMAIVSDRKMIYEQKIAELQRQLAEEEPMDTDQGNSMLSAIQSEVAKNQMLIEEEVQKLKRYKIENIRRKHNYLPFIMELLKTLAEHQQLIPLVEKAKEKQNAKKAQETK
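system = Proteasome-associated human UCH37 deubiquitinase | amount = 0.15 nM proteasome as dispensed | medium = pH 7.4 Tris-HCl (50 mM) with ovalbumin, ATP-MgCl2, DTT | incubation = 30 min preincubation with enzyme, 25 min cleavage at room temperature | detection = AMC fluorescence 355/460 nm | read-out basis = percent inhibition | controls = no-proteasome and no-compound wells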
Numbers without * were called inactive; i = inactive; ? = inconclusive; · = no result given; & = joins results of further samples. A portion of the library. The share of hits here may be higher or lower than overall.

SMILES	Ecoli growth	HNF4A DNA FP	FGF22 binding	RanGTP-Impb inh	MLL AF4-AF9 inh	Vif TR-FRET	UCH37 inh
CCc1ccc(S(=O)(=O)NCCc2cn3ccc(C)cc3n2)s1	0.72	-1.8	i	8.3	-2.9	-4%	4.6
Cc1ccc2[nH]c3c(=O)n(CC(=O)NCCCN4CCN(c5ccc(F)cc5)CC4)ncc3c2c1	0.6	0.4	i	2.0	2.8	·	-4.3
C[C@@](Cc1ccc(O)c(O)c1)(NN)C(=O)O	·	0.8&-0.2	i	·	0.6	?	·
COc1ccc(NCc2nnc(SCC(=O)NCc3ccco3)n2-c2ccccc2OC)cc1	0.72	-0.1	·	1.8	·	3%	3.7
Cc1sc2ncnc(SCC(=O)NCC(C)C)c2c1C	0.7	0.4	·	-1.2	·	-1%	0.4
O=C(CSCc1ccc(Cl)cc1)Nc1cc([N+](=O)[O-])ccc1O	0.66	-0.7	·	1.9	0.5	-3%	7.5
CC(=O)OC1CCC2C3CCC4=C(CC(F)C(=O)C4)C3CCC12C (stereo unspecified)	0.68	-0.1	i	·	2.9	-5%	-1.5
CC(=O)N1CCC(O)(c2cccc(C(F)(F)F)c2)CC1	0.69	-5.4	·	7.0	·	2%	5.9
Cc1ccc(NC(=O)NC2CCCCC2)cc1Cl	0.73	0.3	·	·	·	-6%	2.7
C[C@H]1CN[C@H](CCO)/C1=C\c1ccccc1	0.68	-1.9	i	·	-1.1	-7%	-2.6
O=C(Nc1ccc(S(=O)(=O)N2CCOCC2)cc1)C1CC1	0.66	-0.8	·	4.8	-2.1	·	3.5
Cc1ccc(CN(C)CC(=O)NC(C)c2ccccc2)cc1 (stereo unspecified)	0.66	-2.5	i	2.2	-1.1	·	1.6
COc1ccccc1-c1c(C)nn2c(N3CCC4(CC3)OCCO4)cc(C)nc12	0.69	0.3	·	4.0	·	-2%	0.7
Nc1cc(=O)n(Cc2ccccc2)c(=O)n1-c1ccc(Cl)cc1	0.71	-4.7	i	0.9	-0.3	6%	2.1
COc1cc(OC)c(C=Cc2ccncn2)c(OC)c1	·	2.3	i	·	2.0	1%	·
CC(=NC1CCCC1)c1c(C)[nH]n(-c2nc3ccccc3s2)c1=O	0.69	13	·	4.9	·	73%	-1.9
CC1CCCN(S(=O)(=O)c2ccc3c(c2)c(=O)nc2ccccn23)C1 (stereo unspecified)	0.67	2.7	i	-0.9	-0.4	8%	-474
COc1ccc(S(=O)(=O)N2CCCCCC2)cc1C(=O)N(C)Cc1ccc(OC)c(OC)c1OC	0.67	1.6	i	-3.0	-10	-3%	-0.8
Cc1c(C(=O)NC2CCCc3ccccc32)oc2ccc(S(=O)(=O)N3CCCC3)cc12 (stereo unspecified)	0.65	-1.3	·	3.4	·	6%	1.3
COC(=O)[C@@]1(Cc2ccc(OC)cc2)[C@H]2c3cc(C(=O)N4CCCC4)n(CCc4c[nH]c5ccccc45)c3C[C@H]2CN1C(=O)c1ccccc1	·	1.0	i	·	5.7	·	·
CCOc1ccc(-c2ccc(NS(=O)(=O)c3ccc([N+](=O)[O-])cc3)cc2)nn1	·	5.3	i	0.7	0.8	·	·
COc1ccc(C(=O)Nc2ccc(S(=O)(=O)N3CCCC3)cc2)cc1	0.66	-0.5	i	-1.1	0.8	·	3.9
O=S(=O)(NCc1ccccc1)c1ccccc1NCCc1ccccc1	0.71	-1.7	i	·	-2.9	-2%	-2.8
COC(=O)c1c(NC(=O)c2c(Cl)cnn2C)sc(C)c1C	0.75	2.1	i	2.1	-2.2	-1%	-215
Cc1onc(-c2ccccc2)c1C(=O)N1CCCC(C)(C(=O)NS(=O)(=O)C2CC2)C1 (stereo unspecified)	·	1.1	i	·	-1.6	·	·
(further entries)
SMILES	Ecoli growth	HNF4A DNA FP	FGF22 binding	RanGTP-Impb inh	MLL AF4-AF9 inh	Vif TR-FRET	UCH37 inh
CCOc1ccc(S(=O)(=O)Nc2ccn(C)n2)cc1	0.7	0.2	i	·	0.0	-7%	1.7
Cc1ccsc1C(=O)OCC(=O)NC1CCCC1	0.65	0.4	i	·	-8.3	·	2.0
O=C(COC(=O)c1cc(S(=O)(=O)N2CCOCC2)ccc1O)NCCc1ccccc1	0.71	-1.5	·	-1.7	·	3%	-17
CCCC(C)C(=O)Nc1cc([N+](=O)[O-])ccc1Cl (stereo unspecified)	0.7	3.2	i	-2.9	1.3	?	2.1
Cc1ccc2[nH]c(=O)c(CN(CC3CCCO3)C(=O)c3ccncc3)cc2c1 (stereo unspecified)	0.74	-0.4	·	-0.3	·	-1%	2.7
C[C@@H]1CN([C@@H](C)CO)C(=O)c2cc(Br)cnc2O[C@H]1CN(C)C(=O)CCN1CCCCC1	·	-3.4	i	·	-3.1&-4.2	-4%	·
COc1ccc(/C=C2\CCc3ccccc3C2=O)cc1OC	0.64	2.1	·	4.3	·	22%	7.4
COc1ccc(NC(=O)CCCNC(=O)Cn2cnc3sc(C)c(C)c3c2=O)cc1Cl	0.65	-0.8	i	3.2	-2.1	·	3.3
CCC(=O)Oc1ccc(C(=O)Nc2ccccc2C(=O)NCC(C)C)cc1	0.74	-0.1	i	5.7	-2.1	-2%	0.8
COc1cccc(CN2CCNC(=O)C2CC(=O)N(C)CC2CCOCC2)c1OC (stereo unspecified)	0.68	0.7	i	1.8	-0.9	·	-1.5
O=C(NC1CCCC1)C(c1ccc(N2CCOCC2)cc1)N(C(=O)c1ccco1)c1ccccc1F (stereo unspecified)	0.73	-5.1	i	?	-1.3	·	38*
O=c1c(-c2ccc(O)cc2)coc2cc(OC3OC(CO)C(O)C(O)C3O)cc(O)c12 (stereo unspecified)	0.68	0.3	i	8.2	-12	2%	4.2
COc1ccc(C(=O)C2CCCN(Cc3ccc(Sc4nncn4C)o3)C2)cc1F (stereo unspecified)	0.63	3.2	i	-0.8	-2.7	0%	0.1
C/C(=N\NC(=O)CNc1ccc(F)cc1)c1cc2ccccc2o1	·	3.3	i	4.5	9.8	-12%	·
COc1ccc(/C=N/OCC(=O)N2CC3(C)CC2CC(C)(C)C3)cc1 (stereo unspecified)	·	1.4	i	0.2	-31	6%	·
CSc1ccc(/C=N/NC(=O)c2ccccc2Cl)cc1	·	1.1	·	-0.3	5.4	-8%	·
CCCC1(CCC)NC(=O)NC1=O	0.69	-1.3	·	3.4	·	3%	3.0
C=CCn1c(-c2cccc3ccccc23)n[nH]c1=S	0.67	0.1	·	-0.9	·	-1%	0.7
O=C(COC(=O)CCCc1nc2ccccc2s1)Nc1ncc(Cl)cc1Cl	0.66	6.5	i	?	2.4	19%	4.8
Cc1ccccc1NCCC(=O)Nc1ccc(F)cc1	0.67	-2.2	i	-3.3	2.9	·	6.8
Cc1cc(OCC(O)CN2CCOCC2)cc(C)c1Cl (stereo unspecified)	0.6	-1.0	i	5.0	0.4	4%	1.7
Cc1ccc(C2(C)NC(=O)N(CC(=O)Nc3ccc(-c4nc5ccc(C)cc5s4)cc3)C2=O)cc1 (stereo unspecified)	0.71	1.0	i	3.6	6.2	23%	-99
CCOC(=O)[C@]12CCC=C1N(Cc1ccc3c(c1)OCO3)C(=O)[C@H](CC(=O)NCc1cccc(C(F)(F)F)c1)C2	·	4.2	i	·	-3.0	·	·
CC(C)(CC(=O)O)CC(=O)O	0.69	5.0	i	-1.7	0.0	·	1.4
COc1ccccc1CNC(=O)Nc1nc(C(N)C(C)C)cs1 (stereo unspecified)	·	-0.9	i	·	0.7	·	·
(cont.)
SMILES	Ecoli growth	HNF4A DNA FP	FGF22 binding	RanGTP-Impb inh	MLL AF4-AF9 inh	Vif TR-FRET	UCH37 inh
Cc1cccc(CN2C(=O)CCSc3ccc(Cl)cc32)c1	0.79	-1.0	·	2.0	·	5%	2.2
OC[C@@H]1CN(Cc2cccnc2)C[C@H](n2cnc3c(N4CCN(c5ccccc5)CC4)ncnc32)O1	·	1.6	i	·	2.8	·	·
Cc1c(C)c2ccc(OCC(=O)N3CCN(c4ccccc4)CC3)cc2oc1=O	0.71	6.7	·	2.1	·	·	-6.4
Cc1ccc(CNC(=O)CCN2C(=O)[C@@H]3Cc4ccccc4CN3C2=O)cc1	0.67	1.2	i	0.8	-2.6	·	-0.8
O=C(OCCCN=C1NS(=O)(=O)c2ccccc21)c1ccc(F)cc1	0.73	0.4	·	-4.5	·	7%	1.7
CC(=O)c1cccc(NC(=O)C2CCCN2S(=O)(=O)c2cccc3nsnc23)c1 (stereo unspecified)	0.75	2.2	i	1.2	4.2	3%	7.0
O=C(COC(=O)C1(c2ccccc2F)CCCC1)Nc1ncc(C(F)(F)F)cc1Cl	0.68	-1.1	·	-1.1	·	3%	-1.1
CCCN(Cc1ccc(N(C)C)cc1)CC1CC1	0.67	4.0	·	5.9	·	11%	1.8
O=C(Nc1ccc(Cl)cc1)c1cc(S(=O)(=O)Nc2ccccn2)ccc1Cl	0.68	2.7	i	-1.4	1.2	·	-0.3
CC(NS(=O)(=O)c1cccc(C(=O)NCc2ccncc2)c1)c1ccccc1 (stereo unspecified)	0.65	-3.5	i	·	-1.0	·	-0.4
CCC(=O)Nc1ccc(C(=O)NNC(=O)c2ccc(C)cc2)cc1	0.68	-2.4	i	-1.0	-16	·	2.1
CN(C)CC1(C)Cc2ccsc2C1O (stereo unspecified)	0.69	-2.6	i	·	2.3	-9%	0.5
COc1ccc(CNC(=O)c2sc(=O)n(Cc3ccc(S(=O)(=O)N(C)C)cc3)c2C)cc1	·	0.7	i	·	-3.6	·	·
COc1ccccc1OCc1nc(C#N)c(N2CCCC2)o1	0.64	-0.7	i	2.9	3.1	1%	-1.3
CN(C)CCCN(C(=O)COc1ccccc1)c1nc2ccc(Cl)cc2s1	0.62	-0.7	i	-1.8	13	2%	4.5
C#CCOCCOCCOCCNc1nc(N2CCN(C(=O)Cn3cc(CCCN=C(N)N)nn3)CC2)nc(N2CCN(C(=O)[C@H](CCCCN)n3cc(CC(C)O)nn3)CC2)n1 (stereo partly specified)	0.76	0.2	i	·	5.0	·	0.9
O=C(Nc1cc(Cl)ccc1-n1cncn1)c1ccc([N+](=O)[O-])o1	0.58	1.2	i	0.8	-19	8%	0.8
CCCN(CCC)C(=O)c1cn(CC)c2ccc(S(=O)(=O)N3CCCCC3)cc2c1=O	0.68	2.4	i	4.2	-1.7	·	3.8
COc1ccccc1NC(=O)c1ccc2nc(-c3ccccc3)c(-c3ccccc3)nc2c1	0.74	-1.1	·	2.5	·	-2%	-20
O=C(CCCNC(=O)c1ccc(Cl)cc1)Nc1cccc(F)c1	0.62	-0.8	i	-0.7	-0.3	·	0.3
COc1cc2c(cc1OC)CN(C(=O)c1cc(Cl)nc(Cl)c1)CC2	0.63	-0.1	i	-2.2	3.3	4%	-2.5
Cn1c(CNc2ccccc2O)nc2ccccc21	0.81	4.1	i	?	16	18%	-1.3

Shown with two lines to a compound: 5 of the compounds above
Sequence of screens: Ecoli growth | HNF4A DNA FP | FGF22 binding | RanGTP-Impb inh | MLL AF4-AF9 inh | Vif TR-FRET | UCH37 inh
- CC(NS(=O)(=O)c1cccc(C(=O)NCc2ccncc2)c1)c1ccccc1 (stereo unspecified)
    0.65 | -3.5 | i | · | -1.0 | · | -0.4
- O=C(Nc1ccc(Cl)cc1)c1cc(S(=O)(=O)Nc2ccccn2)ccc1Cl
    0.68 | 2.7 | i | -1.4 | 1.2 | · | -0.3
- CN(C)CC1(C)Cc2ccsc2C1O (stereo unspecified)
    0.69 | -2.6 | i | · | 2.3 | -9% | 0.5
- Cc1c(C)c2ccc(OCC(=O)N3CCN(c4ccccc4)CC3)cc2oc1=O
    0.71 | 6.7 | · | 2.1 | · | · | -6.4
- COc1ccccc1OCc1nc(C#N)c(N2CCCC2)o1
    0.64 | -0.7 | i | 2.9 | 3.1 | 1% | -1.3
